Source: PubChem
CDC25B CDK2 inh = human CDC25B-CDK2/CyclinA binding inhibition. P30305+P24941. HTRF CDC25B-CDK2/CyclinA binding, anti-His/anti-Flag; hits give high values. z-score (no concentration beside the values). 94,000 tested, 0.72% active. AID 1259370;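 also: score is relative to mean and SD of negative controls; strong numbers were not always called active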
HIV TAR-Tat = HIV-1 TAR-Tat binding disruption. HIV-1 TAR RNA, Tat peptide displacement FRET; hits give high values. z-score (no concentration beside the values). 100,000 tested, 0.6% active;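 also: score is relative to mean and SD of negative controls; some compounds called inactive have numbers as strong as hits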
* hit, by the source's call; nt = not tested or not shown.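 The calls were made as follows: active = z-score from 3 up in half or more of its runs; inactive = the rest.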 Hits appear at their usual frequency, and some 0.89% of all compounds hit somewhere here.

The line under a structure holds: CDC25B CDK2 inh, HIV TAR-Tat
- CC1(C)CC(=O)C2=C(C1)Nc1ccccc1NC2c1cc(F)cc(F)c1 (stereo unspecified)
    -1.6, nt
- c1cncc(-c2nc3c4ccccc4nc(NCc4ccco4)n3n2)c1
    -1.8, nt
- CCN(CCN(C)C)C(=O)C(=O)Nc1ccc2nc3n(c(=O)c2c1)CCCCC3
    1.3, nt
- CCSC1=N/C(=C\c2ccc(OC(C)=O)c(OC)c2)C(=O)S1
    -0.27, -1.3
- CN(C)/C=N/NS(=O)(=O)c1ccc(Cl)c(Cl)c1
    0.26, nt
- COc1ccc(Nc2ncc3c(n2)CCN(CC(C)C)C3)c(OC)c1
    nt, 0.16
- O=C(c1cccc(Cl)c1)N1CCN(Cc2cc(=O)n3[nH]c(-c4ccccc4)nc3n2)CC1
    nt, 1.3
- CCN1C(=O)C(NC(C)=O)c2cc(C)cc(C)c21 (stereo unspecified)
    -1.2, -0.63
- CCOC(=O)Cn1nc(N2CCN(c3ccc(F)cc3)CC2)ccc1=O
    -1.4, -0.63
- COc1ccc(-c2nc(C(N)=O)c3[nH]c(=O)n(-c4ccccc4)c3n2)cc1O
    nt, 1.9
- c1ccc(COc2ccc(CNc3n[nH]c(-c4ccco4)n3)cc2)cc1
    -0.99, 2
- CC(C)NCC(O)Cn1c2c(c3ccccc31)CCCC2=O (stereo unspecified)
    1, nt
- O=C(CCCN1C(=O)c2cccnc2Sc2ccccc21)NCc1ccco1
    nt, -0.25
- O=C(NCCC1=CCCCC1)c1ccc2c(=O)n3c(nc2c1)CCCC3
    nt, 2.7
- CCOc1ccc(N(C(=O)C(C)C)C2C=CS(=O)(=O)C2)cc1 (stereo unspecified)
    1.1, 1.5
- N#Cc1sc(-c2ccc(F)cc2)cc1N=Cc1cccc([N+](=O)[O-])c1
    -1.7, nt
- CC(O)CNCCNCc1ccc(-c2ccc(Cl)cc2)o1 (stereo unspecified)
    nt, -0.31
- CN(C)CCN(C(=O)c1ccco1)c1nc2c(F)cc(F)cc2s1
    nt, -1
- O=C(CCCCCCC(=O)Nc1ccc(I)cc1)NO
    nt, -1.2
- O=C(Nc1cc(C(F)(F)F)ccc1Cl)C(=S)NCc1ccco1
    -0.12, nt
- CCCN1C(=O)c2[nH]nc(-c3ccccc3O)c2C1c1ccc(Br)cc1 (stereo unspecified)
    -1.6, -0.81
- COc1ccc(OC)c(NC(=O)CSc2nc(-c3ccco3)nc3cc(=O)[nH]n23)c1
    nt, 3.4
- O=C(CCC1Nc2c3ccccc3nc(=S)n2C1=O)N1CCN(c2ncccn2)CC1 (stereo unspecified)
    -1, nt
- CCCN1CCN(c2nc(N3CCCC3)c3cnn(C)c3n2)CC1
    nt, 1.7
- Cc1cc(C)n(C2CC(c3ccccc3)=NNC2=O)n1 (stereo unspecified)
    nt, 0.28
- CN1CCN(c2ccc3nnc(CCC(=O)N4CCN(c5ccccc5F)CC4)n3n2)CC1
    nt, 0.92
- FC(F)(F)c1ccnc(NCCNC(=S)Nc2ccc3c(c2)OCCO3)n1
    -0.85, nt
- CCOCCCN(Cc1ccco1)C(=O)Cn1ncc2c(=O)oc3ccc(C)cc3c21
    -0.41, 0.69
- c1ccc(-n2nnnc2Oc2cccc(CNC3CCCC3)c2)cc1
    nt, 1.6
- CSc1nsc(SCC(=O)Nc2ccccn2)n1
    -1.4, 0.73
- O=c1oc2ccccc2c2c1nc(C(F)(F)F)n2-c1ccccc1
    -1.3, nt
- CN(Cc1ccco1)C(=O)CCS(=O)(=O)c1ccc2c(c1)n(C)c(=O)c(=O)n2C
    0.01, -1.9
- COc1cccc(OCc2nc3ccccc3n2CC(C)C)c1
    0.7, 1.2
- O=C1C(O)=C(O)C(=O)C(O)=C1O
    nt, -0.07
- CCOC(=O)c1c(NC(=O)c2cc(C)on2)c2cc([N+](=O)[O-])ccc2n1C
    -1, nt
- Cc1cc2c(s1)CCc1cc(C(=O)NCCC(C)C)sc1-2
    nt, -0.83
- CCOC(=O)c1c(NC(=O)C2Cc3ccc(C)cc3C(=O)O2)sc2c1CCC(C)C2 (stereo unspecified)
    -2, -0.26
- CC(C)CCn1c(CCCNC(=O)C(C)C)nc2ccccc21
    -0.93, 3
- O=S(=O)(Oc1ccc(Cl)cc1)c1cc(S(=O)(=O)Oc2ccc(Cl)cc2)c(Cl)s1
    -1.5, nt
- CC1(C)Cc2c(sc3ncn4nc(-c5ccc(F)cc5)nc4c23)C(C)(C)N1
    -0.92, nt
- CC1(C)Cc2nc3oc4c(=O)n(CC(=O)Nc5ccc(Cl)cc5)cnc4c3cc2CO1
    nt, -2.1
- FC(F)(F)Oc1ccc(-c2noc(-c3ccno3)n2)cc1
    -1, nt
- Cc1[nH]c2[nH]n(-c3ccccc3)c(=O)c2c(=O)c1Cc1ccc(Cl)cc1
    -4.1, -2.2
- Cc1cc(C)c(-n2nnn(C3CC(=O)C4OCC3O4)c2=S)c(C)c1 (stereo unspecified)
    -0.18, nt
- Cc1ccc(C(=O)Oc2cc(-c3ccc4c(c3)OCO4)cc(=O)c3c(C)oc(C)c23)cc1
    -3.4, -2
- N#Cc1cc2c(nc1SCc1ccccc1)CCCC2=O
    -1.8, nt
- N#Cc1c(-c2ccccc2)nc(SCC(=O)NC2CCCCC2)[nH]c1=O
    -1.7, 0.01
- CCN1CCN(c2ncc3c(n2)CCN(Cc2ccccc2Cl)C3)CC1
    nt, 1.5
- Cc1ccc(C(=O)c2cn(CC(N)=O)c3nc(C)ccc3c2=O)cc1
    nt, 0.65
- Cc1nnc(SCC(=O)Nc2ccc(Br)cc2)s1
    -0.81, nt
- O=C(NC1CCCCC1)c1cc(-c2cccnc2)nc2ccccc12
    -0.41, nt
- CC1CN(C/C(N)=N/S(=O)(=O)c2cc(Cl)cc(Cl)c2)CC(C)O1 (stereo unspecified)
    -0.36, nt
- c1ccc2c(c1)nc(NC1CCCC1)c1nnnn12
    0.49, -0.5
- CCc1ccc(-c2cc(C)no2)cc1S(=O)(=O)N1CCC(c2cc(OC)ccc2OC)C1 (stereo unspecified)
    nt, -0.4
- C[N+](C)(C)CC=O
    -0.91, nt
- Cc1ccc(C(=O)NC(=S)Nc2ccc(O)c(-c3nc4ccccc4s3)c2)cc1[N+](=O)[O-]
    -3.8, nt
- CCN(CC)Cc1ccc(O)c2ncccc12
    13*, 1.3
- COc1cc(OC)c(-c2ccccc2)nn1
    0.49, nt
- NC(=O)CSc1nncc2ccccc12
    -2.3, 0.34
- CN(C(=O)Cn1nc(Cc2ccncc2)c2ccccc2c1=O)C1CCCCC1
    -2.5, -1.1

New compounds follow.
The line under a structure holds: CDC25B CDK2 inh, HIV TAR-Tat
- CCCc1c(C)c2ccc(OCC(=O)OCC)cc2oc1=O
    0.08, nt
- FC(F)(F)c1nc2ccccc2c2nc3ccccc3n12
    0.42, nt
- O=C(C1CCN(c2nnc(N3CCCC3=O)s2)CC1)N1CCN(c2cccc(Cl)c2)CC1
    nt, 1.3
- O=C(Nc1ccccc1Cl)N1CCN(c2nc3cc(F)ccc3n3cccc23)CC1
    nt, 0.86
- CN1CCc2c(sc3c2C(=O)NC(c2c(F)cccc2Cl)N3)C1 (stereo unspecified)
    -2.6, -1.6
- CSCCC(NC(=O)c1ccc(C(F)(F)F)cc1)C(=O)N/N=C/c1cccs1 (stereo unspecified)
    -1.5, nt
- Clc1ccc(-c2noc3ncnc(NCCCN4CCOCC4)c23)cc1
    -1.3, 0.16
- COC(=O)c1cc(C)c(-c2ccc(-c3ccccc3F)cc2)s1
    -2.6, nt
- O=C1CC(=O)Nc2cc(S(=O)(=O)N3CCCCC3)ccc2N1
    nt, -1.1
- Cc1csc(NC(=O)CCc2c(C)nc3c4c(C)cc(C)nc4nn3c2C)n1
    -1.7, 1.2
- O=C1CC(c2ccco2)Cc2c1cnc1[nH]n(-c3ccccc3)c(=O)c21 (stereo unspecified)
    -1.6, 1.5
- Cc1ccc2c(c1)c(N1CCCC1=O)c(C(=O)NC1CC1)n2C
    nt, -0.03
- O=S1(=O)Nc2ccc(O)cc2-c2cc(Cl)ccc21
    0.02, nt
- COc1cccc(CNc2ncnc3onc(-c4ccccc4OC)c23)c1
    nt, 0.86
- Cc1ccc(NC(=O)C2c3ccccc3C(=O)N3CCc4ccccc4C23)nc1 (stereo unspecified)
    -0.22, nt
- Cn1c(=O)c2c(nc(N3CCc4ccccc4C3)n2CCSc2ncccn2)n(C)c1=O
    -1.1, 0.17
- CN(C(=O)CSc1nnc(-c2cc3ccccc3n2C)o1)c1ccc(F)cc1
    -1.7, 1.2
- O=C(c1cc2n(n1)C(C(F)(F)F)CC(c1ccc(Br)cc1)N2)N1CCCCC1 (stereo unspecified)
    0.48, 0.33
- COc1ccc(NC(=O)CSc2nncn3c2cc2occc23)c(OC)c1
    nt, 1.5
- Cc1nnc(NC(=O)CSc2nnc(Cc3cccn3C)n2-c2ccccc2)s1
    -1, -0.16
- CCCc1nc2c(=O)[nH]c3ccccc3c2o1
    -2.2, nt
- CN1C(C(=O)NCc2ccco2)=CC(c2cccs2)=NS1(=O)=O
    -0.79, 0.89
- Cn1c2ccccc2c2nnc(NCCc3c[nH]c4ccccc34)nc21
    -1.1, 0.11
- CC(C)c1ccc(-c2c(NCc3ccc(F)cc3)c(=O)c2=O)cc1
    nt, 0.59
- CCOC(=O)C12CCC(C(N)=O)(CC1)CC2
    -3.5, nt
- CCc1ccc(S(=O)(=O)c2cn(C)c3cc(N(CC)CC)c(F)cc3c2=O)cc1
    nt, -0.31
- CC1CCCCC1NC(=O)Nc1ccc2c(c1)N(C)C(=O)CS2 (stereo unspecified)
    -2.1, 0.34
- CCOC(=O)c1c(C)[nH]c(NC(=O)Nc2c(C)n(C)n(-c3ccccc3)c2=O)c1C
    -3.9, 1.7
- O=C(O)c1cccc2c1-c1ccccc1C2
    0.65, -1.8
- COc1cccc2c1OCC(C(=O)NC1CCCCC1)=C2
    nt, 0.59
- COC(=O)c1ccsc1NC(=O)c1cncc(Br)c1
    -2.1, nt
- CCNC(=O)N(Cc1nc(-c2ccc(C)cc2)no1)C1CCCCC1
    -2, 0.65
- O=S(=O)(CCc1ccccc1)NCCc1csc2nc(-c3ccccc3F)nn12
    nt, 0.45
- COc1ccc(S(=O)(=O)Nc2ccccc2Br)cc1OC
    -2.1, -0.97
- Cc1oc2cc(Br)c(OC(=O)C(C)(C)C)cc2c1C(=O)OC(C)C
    -1.1, nt
- C=Cc1ccc(Cn2c(=O)cc(C)c3c(C)nn(C)c32)cc1
    nt, 0.45
- CSc1cccc(NC(=O)c2cc3c(s2)-c2ccc(Cl)cc2S(=O)(=O)C3)c1
    -1.6, 2.3
- CC1Cc2cc(S(=O)(=O)CCC(=O)Nc3ccc(F)cc3F)ccc2N1C(=O)C1CC1 (stereo unspecified)
    nt, -0.25
- CCN1CCN(C(=O)Cn2cc(S(=O)(=O)N3CCCC3)c(S(=O)(=O)N3CCCC3)c2)CC1
    nt, 2.1
- O=C1CSC(c2ccccc2)N1c1ccccc1 (stereo unspecified)
    -0.16, 1.1
- CC(Sc1nc2ccccc2n1Cc1ccccc1)C(=O)O (stereo unspecified)
    -0.32, 0.96
- N#Cc1cc(NC(=O)c2ccc(F)cc2)c(=O)n2c1[nH]c1ccccc12
    -0.21, -5.4
- CN(C1CCCCC1)S(=O)(=O)c1ccc2[nH]c(=O)ccc2c1
    nt, 2.7
- Cc1ccc(CN(C(=O)c2cccs2)C2CCS(=O)(=O)C2)o1 (stereo unspecified)
    -2.1, 0.74
- O=C(NCCOCCn1c(=O)oc2ccccc21)Nc1ccc(F)cc1F
    -1.6, 3
- CN1CCN(C(=O)c2cc3c(s2)-c2ccc(Cl)cc2S(=O)(=O)C3)CC1
    -1.4, 1.4
- O=C(Cn1cnc2ccccc21)c1ccccc1
    -0.9, 1.2
- O=C(c1ccccc1)N1CCN(C(c2ccccc2)c2ccccc2)CC1
    -1.3, nt
- O=C(CCCC1=NS(=O)(=O)c2ccccc2N1)OCc1ccc(Cl)cc1
    nt, 0.44
- O=C(CC1CC2CCC1C2)N1CCN(S(=O)(=O)c2ccc(F)cc2)CC1 (stereo unspecified)
    nt, 1.2
- CCN1CCN(c2cc(=O)n3c(-c4ccc(C)cc4)csc3n2)CC1
    -1.6, 1.9
- O=C(CSCc1ccc(Cl)cc1Cl)Nc1ccc2c(c1)OCO2
    1.2, nt
- COc1ccc(N2C(=O)C3C4C(C)=CC(C)(C3C2=O)C2C(=O)N(c3ccc(OC)cc3)C(=O)C42)cc1 (stereo unspecified)
    -0.83, nt
- Cc1cc(C)cc(N2CC(c3nc4ccccc4n3CCN3CCOCC3)CC2=O)c1 (stereo unspecified)
    -1.1, 0.24
- O=S(=O)(c1ccc(Cl)cc1)c1nc(-c2ccccc2Cl)oc1N1CCOCC1
    -0.72, 1.1
- CN(C(=O)c1ccccc1Cl)C(c1cccs1)c1c[nH]c2ccccc12 (stereo unspecified)
    2, 0.24
- CCC(C)(C(=O)NC1CCCC1)N(Cc1ccco1)C(=O)Cc1cccs1 (stereo unspecified)
    -0.15, nt

Full records, looked up by structure.
Profile of O=C(CCCC1=NS(=O)(=O)c2ccccc2N1)OCc1ccc(Cl)cc1 = CDC25B CDK2 inh: nt; HIV TAR-Tat: 0.44
Profile of CC(Sc1nc2ccccc2n1Cc1ccccc1)C(=O)O (stereo unspecified) = CDC25B CDK2 inh: -0.32; HIV TAR-Tat: 0.96

Random excerpt: four compounds from above, in no set order.
The line under a structure holds: CDC25B CDK2 inh, HIV TAR-Tat
- CCN1CCN(c2cc(=O)n3c(-c4ccc(C)cc4)csc3n2)CC1
    -1.6, 1.9
- O=C(Cn1cnc2ccccc21)c1ccccc1
    -0.9, 1.2
- O=C(CCCC1=NS(=O)(=O)c2ccccc2N1)OCc1ccc(Cl)cc1
    nt, 0.44
- O=C(NCCOCCn1c(=O)oc2ccccc21)Nc1ccc(F)cc1F
    -1.6, 3
